# Bst PK mod: modulators of Bacillus stearothermophilus pyruvate kinase | partly purified Bacillus stearothermophilus pyruvate kinase, luminescence ATP production; ribose 5-phosphate activator present at AC10 | Potency, µM | hit rate 1.2% among 51,000 | AID 361; in the data active means potency below about 11 µM; inconclusive means mostly about 12 µM to 25 µM; inactive means weaker than that;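 the screen sought inhibitors and activators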;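 also: potency is read from the fitted curve at half-maximal effect; scaled between full activation by ribose 5 phosphate and full inhibition by luteolin; about four in five hits inhibit and the cells do not say which; series up to 57 µM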
# YjeE inh: YjeE (TsaE) inhibition, E. coli | P0AF67 | purified YjeE, fluorescence polarisation of a bound ADP probe | Potency, µM | hit rate 0.05% among 71,000 | AID 605; active = well fitted falling curve; inconclusive = weaker or top-dose-only fall, or a rising curve; inactive = flat or poorly fitted curve;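 also: top concentration of the series not given in the record; excess ADP was the control for the full effect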
#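 Fluorescence polarization of a BODIPY Texas Red–ADP probe (2 uM) bound to purified YjeE (10 uM) was read after 15 min room-temperature incubation with compounds. Loss of polarization marks inhibitors; ADP serves as titrated control.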
# Numbers without * were called inactive; i = inactive; / = no result given. An excerpt (hit frequency here may not be typical).
SMILES,Bst PK mod,YjeE inh
Fc1cccc(NCc2cn3ccccc3n2)c1,/,i
O=C(CSc1nc2ccsc2c(=O)n1NC(=O)c1ccccc1)Nc1nccs1,>57,i
COc1ccccc1C1C(C(N)=O)=C(C)Nc2nc(-c3ccccc3Cl)nn21 (centres undefined),/,i
CC(=O)c1cc2c(cc1NS(=O)(=O)c1ccc(C)cc1)OCCO2,/,i
Cc1cc(=O)oc(C)c1C(=O)N1CCN(C)CC1,>25.6,/
CCOC(=O)N1CCC(NC(=O)c2ccc3c(c2)N(CC)CCS3)CC1,/,i
O=C(Cn1cc2c(n1)CCCCC2)NC1CCN(Cc2ccccc2)CC1,/,i
Cc1ccccc1Nc1nnc(SCC(=O)NC(=O)NCc2ccco2)s1,>57,i
N#Cc1ccc(CN2CCC3(CC2)CCN(C(=O)c2cc(C(F)(F)F)cc(C(F)(F)F)c2)CC3)cc1,/,i
CCSc1nc2cc(OC)c(OC)cc2c(=O)n1CC,>57,i
CCc1c(C)c2c(C)[nH]nc2oc1=O,>57,i
COc1ccc(CCNC(=O)CCCCn2c(=O)[nH]c3ccccc3c2=O)cc1OC,>57,i
Cc1ccc(Cl)cc1N1CCN(C(=O)Cn2ccc3ccccc3c2=O)CC1,>57,i
Cc1cccc2cc(CN(Cc3cccs3)Cc3nnnn3Cc3ccccc3)c(=O)[nH]c12,>57,i
O=C(NCc1ccco1)[C@@H]1CSC2c3ccccc3C(=O)N21 (some centres undefined),/,i
Cc1sc2ncnc(OCC(=O)c3ccc(S(=O)(=O)N4CCCC4)cc3)c2c1C,>57,i
Cc1nn(C)c(C)c1S(=O)(=O)NCc1cccs1,>57,i
COc1ccc(NC(=O)N2CC[C@@]3(CCCN(C(=O)c4ccc(OC)cc4)C3)C2)cc1,/,i
COc1ccc2cc3cc(C(=O)NCC4CCCO4)oc3nc2c1 (centres undefined),i,i
COc1ccc(S(=O)(=O)N2CCN(Cc3cccc(Cl)c3)CC2)cc1,/,i
Cc1cc(C)n(-c2nc3c(c(=O)[nH]c(=O)n3C)n2CC(O)COc2ccccc2C)n1 (centres undefined),>57,i
COc1ccccc1C1(CC(=O)N2CCOCC2)CCOC(C(C)C)C1 (centres undefined),>25.6,/
COc1ccccc1N(CC(=O)NC(C)(C)C)C(=O)Cn1nnc(-c2ccc(C)o2)n1,>57,i
O=c1c2c(nc3c(-c4cccc5ccccc45)c[nH]n13)CCC2,/,i
CC(C)(C)NC(=O)Nc1ccccc1C(N)=O,>57,i
CCOc1ccc(-n2c(COc3ccc(C)cc3)nnc2SCC(N)=O)cc1,>57,i
CC(C)N=c1cc2n(-c3ccc(Cl)cc3)c3ccccc3nc-2cc1Nc1ccc(Cl)cc1,>25.6,i
CC(C)C(=O)Nc1cccc(C(=O)Nc2ccc3c(c2)OCO3)c1,/,i
Cc1cccc(CNc2nc(-c3ccccc3CN(C)C)nc3ccccc23)c1,/,i
CCOCCCNc1nc2c(c(=O)n(C)c(=O)n2C)n1CCCc1ccccc1,>57,i
O=C(c1ccc(O)cc1)c1ccc(C(=O)O)c(C(=O)O)c1,>57,i
O=C(CN1CCC(O)CC1)N1c2ccccc2C=Cc2ccccc21,>57,i
Cn1c(/C(C#N)=C2/CCCCCN2)nc2ccccc21,>57,i
COc1ccc(NC(=O)CSc2nnc(Cn3c(=O)sc4ccccc43)n2C)cc1,/,i
O=C(Nc1ccccc1)N1CCC2(CC1)CCN(C(=O)c1cnccn1)CC2,/,i
CC(=O)N[C@@H](C(=O)O)C(C)(C)SN=O,/,i
Cn1c(NCCCN2CCOCC2)nc2c1c(=O)n(Cc1ccc(Cl)cc1Cl)c(=O)n2C,i,i
COc1cc2c(cc1OC)-c1nnc(-c3cccs3)n1C(C)(C)C2,/,i
COc1cccc(NC(=O)Cn2c(SCC(=O)N3CCOCC3)nc3ccccc32)c1,>57,i
CCOC(=O)C(NC(=O)c1ccccc1)=C1C=C(C)OC(C)=C1,/,i
Cc1cc(NS(=O)(=O)c2ccc(NC(=O)Cc3cccs3)cc2)no1,>57,i
Cc1noc(C)c1C(=O)NCc1ccco1,>57,i
O=C(c1cc(O)c(O)c([N+](=O)[O-])c1)c1ccccc1F,/,i
Cn1cccc1C(=O)OCc1cc(Cl)cc2c1OCOC2,>57,i
CCc1c(C)nc(N)n2c(SCC(=O)Nc3ccccc3OC)nnc12,>57,i
C[N+](C)(CCCCCC[N+](C)(C)CCCN1C(=O)c2ccccc2C1=O)CCCN1C(=O)c2ccccc2C1=O,/,i
COc1ccc(NC(=O)CS(=O)CC(=O)Nc2ccc(OC)c(OC)c2)cc1 (centres undefined),>57,i
COc1ccc(CCNC(=O)c2cccnc2)cc1OC,/,i
COC(=O)CSc1nnc(SCc2ccccc2)s1,/,i
CCCCn1c(SCC(=O)NCc2ccco2)nnc1-c1ccoc1C,>57,i
COc1ccccc1CNc1ncnc2ccc(-c3ccccc3C#N)cc12,/,i
O=C(Nc1nnc(-c2ccccc2Cl)o1)c1ccco1,/,i
CCOC(=O)C1=C(C)Nc2ncnn2C1c1cc(OC)ccc1OC (centres undefined),/,i
O=C(NCc1cccs1)c1cc(-c2cccc(Cl)c2)on1,>57,i
O=C1C2CCCN2C(c2ccc(F)cc2)N1c1cccc(Cl)c1 (centres undefined),/,i
O=c1cc(COn2nnc3ccc(C(F)(F)F)cc32)nc2sccn12,>57,i
CN1CCC(NC(=O)Cc2c(F)cccc2Cl)CC1,>57,i
Cc1ccc(C(N)=S)c(C)c1,>11.4,i
COc1ccc(C(=O)N2CCN(C3CCC(c4ccccc4)CC3)CC2)cc1OC (centres undefined),>57,i
Cn1cccc1C(=O)N1CCC2(CCCN(Cc3ccccc3)C2)CC1,/,i

# The final three records of the section above are carried over, then new ones follow.
SMILES,Bst PK mod,YjeE inh
Cc1ccc(C(N)=S)c(C)c1,>11.4,i
COc1ccc(C(=O)N2CCN(C3CCC(c4ccccc4)CC3)CC2)cc1OC (centres undefined),>57,i
Cn1cccc1C(=O)N1CCC2(CCCN(Cc3ccccc3)C2)CC1,/,i
O=c1c2ccccc2nnn1CSc1nnc(-c2cccnc2)n1-c1ccccc1F,>57,i
COc1ccc(C)cc1N(CC(=O)Nc1cccc(N(C)S(C)(=O)=O)c1)S(C)(=O)=O,>57,i
CCOC(=O)N1CCN(CC(=O)c2c(C)[nH]c3ccccc23)CC1,>57,i
CN(C)CCNc1nc2c(c(=O)n(C)c(=O)n2C)n1C,/,i
CCN1CCN(C(=O)c2cc3nc(-c4ccccc4)cc(C(F)(F)F)n3n2)CC1,>57,i
Cc1cccc(N2CCN(C(=O)Cc3c(C(=O)O)[nH]c4ccc(Cl)cc34)CC2)c1C,>57,i
Cc1nc(CCNC(=O)COc2ccccc2)cs1,/,i
COc1ccccc1CNc1cc(-c2ccccc2Cl)ncn1,/,i
CCCOc1ccc(OCCSc2ncccn2)cc1,/,i
CCCOc1c(OC)cccc1C1CC(=O)Nc2cc3c(cc21)OCCO3 (centres undefined),>11.4,i
COc1cc(OC)cc(C(=O)Nc2ccc(-c3nc4ccccc4o3)cc2)c1,/,i
CCCCN(CC)CCNc1c(NC2CCN(C(=O)OCC)CC2)c(=O)c1=O,/,i
Cc1ccccc1OCC(O)Cn1c(NCc2ccco2)nc2c1c(=O)n(C)c(=O)n2C (centres undefined),>57,i
CCSc1ccccc1C(=O)Nc1nncs1,>57,i
COc1ccccc1-c1nc(NCCc2cnc[nH]2)c2ccccc2n1,/,i

# Record cards (already shown). Order of values: Bst PK mod | YjeE inh
# COc1ccccc1-c1nc(NCCc2cnc[nH]2)c2ccccc2n1 in the list: / | i
# COc1ccccc1CNc1cc(-c2ccccc2Cl)ncn1 in the list: / | i
# CCSc1ccccc1C(=O)Nc1nncs1 in the list: >57 | i
# O=c1c2ccccc2nnn1CSc1nnc(-c2cccnc2)n1-c1ccccc1F in the list: >57 | i
# CCCCN(CC)CCNc1c(NC2CCN(C(=O)OCC)CC2)c(=O)c1=O in the list: / | i

# More results.
SMILES,Bst PK mod,YjeE inh
CCn1c(=O)cc(OCC(=O)NCCCN2CCC(C)CC2)c2ccccc21,>57,i
COc1ccc(C(=O)CCC(=O)O)cc1,/,i
C=CCC1c2cccc(C(=O)O)c2C(=O)N1c1ccc(F)cc1 (centres undefined),>57,i
CCOc1ccc2oc(-c3ccccc3)c(C(=O)N3CCN(C)CC3)c2c1,/,i
O=C(C1Cc2ccccc2O1)N1CCCCC1 (centres undefined),/,i
COc1cccc(OCC(O)CN2CCOCC2)c1 (centres undefined),>57,i
NC(=O)C1(N2CCCCC2)CCN(C(=O)c2ccc(C#Cc3ccccc3)o2)CC1,>57,i
Cc1sc2nc3n(c(=O)c2c1C)Cc1ccccc1-3,/,i
CS(=O)(=O)N1CCC2(CC1)CN(Cc1ccccc1)C2,/,i
CCC(Oc1ccccc1)C(=O)Nc1ccc(S(=O)(=O)NCC2CCCO2)cc1 (centres undefined),>57,i
Cc1c(NC(=O)CSc2ccccn2)c(=O)n(-c2ccccc2)n1C,>57,i
COCCNC(=O)[C@H](C)[C@H]1C[C@]1(C)[C@H](NC(=O)OCc1ccccc1)c1ccccc1,/,i
CCCCOc1ccccc1NC(=O)Cn1c(-c2nonc2N)nc2ccccc21,>57,i
Cc1ccc(NC(=O)C2CC(=O)NC(N3CCc4ccccc43)=N2)cc1 (centres undefined),>57,i
CCCCCc1c(C)nc(Nc2ccccc2)[nH]c1=O,>57,i

# For convenience, some entries already given:
SMILES,Bst PK mod,YjeE inh
Cc1sc2nc3n(c(=O)c2c1C)Cc1ccccc1-3,/,i
CS(=O)(=O)N1CCC2(CC1)CN(Cc1ccccc1)C2,/,i
CCC(Oc1ccccc1)C(=O)Nc1ccc(S(=O)(=O)NCC2CCCO2)cc1 (centres undefined),>57,i

# Next results follow:
SMILES,Bst PK mod,YjeE inh
O=C(CN1CCOc2ccccc21)N1CCC(Cc2ccccc2)CC1,/,i
O=C(O)CC1Sc2nc3ccccc3n2C1=O (centres undefined),>25.6,/
CCOC(=O)N1CCC(Nc2c(NCCCN(C)Cc3ccccc3)c(=O)c2=O)CC1,/,i
Cc1ccc(N(C(=O)c2ccncc2)C2C=CS(=O)(=O)C2)cc1 (centres undefined),/,i
C=CCn1c(SCc2cccc(C#N)c2)nnc1-c1ccccc1O,/,i
Cc1ccc(-c2cc(C(=O)NCCCN3CCOCC3)no2)cc1,>57,i
Cc1ccc(-n2nnc3c(=O)n(Cc4cc(C)ccc4C)cnc32)cc1,>57,i
O=C(O)CCCCCN1C(=O)c2ccc(C(=O)O)cc2C1=O,/,i
Cc1cc(C(=O)CSc2nnnn2C)c(C)n1-c1cccc(F)c1,/,i
O=C(COc1ccc(CO)cc1)Nc1ccc(F)cc1,>57,i
O=S(=O)(c1ccccc1)N1CCC[C@@]2(CCN(c3ccncc3)C2)C1,/,i
Nc1c(Nc2ccccc2)c2ccccc2oc1=O,>57,i
CCCCc1c(C)c2ccc(OCC(C)=O)cc2oc1=O,>25.6,/
Cc1cc(NC(=O)COC(=O)C(Nc2ccc(C(F)(F)F)cc2Cl)C(C)C)no1 (centres undefined),>57,i
OCCN1CCN(CC(O)COc2ccc3c(c2)OCO3)CC1 (centres undefined),>57,i
COC(=O)c1ccc(CSc2ncn[nH]2)o1,/,i
Fc1cccc(-c2cc3nc4c(c(N5CCC6(CC5)OCCO6)n3n2)CCCC4)c1,/,i
Cc1cc(=O)oc2cc(OCC(O)CN3CCN(c4ccccc4)CC3)ccc12 (centres undefined),>57,i
CN1C(=S)SC(/[N+]([O-])=C\c2cccs2)C1(C)C (centres undefined),>57,i
COc1cccc(C(=O)OCC(=O)Nc2ccccc2N2CCOCC2)c1,>57,i
O=C(NCc1ccccc1)c1ccc(-c2ccccc2F)o1,>57,i
O=C(NCCCn1ccnc1)c1cc2c(s1)CCCCC2,>57,i
CCOC(=O)c1cccc(NC(=O)CS(=O)(=O)Cc2nc(-c3cccc(OC)c3)oc2C)c1,>57,i
CCC(C)NC(=O)CSc1nnc(-c2ccncc2)n1-c1ccc(OC)cc1 (centres undefined),>57,i
O=C(Cc1ccc(-n2cccc2)cc1)N1CCc2ccccc21,>57,i
CCNc1ncc2nc(-c3ccc(Cl)cc3)c(=O)n(-c3ccccc3)c2n1,/,i
CN(c1ccc(C(=O)NCCSC(C)(C)C)cc1)S(C)(=O)=O,>57,i
COc1ccc(CNC(=O)C2COc3ccccc3O2)cc1 (centres undefined),>57,i
FC(F)(F)c1cc(CN2CC3(CCNCC3)C2)cc(C(F)(F)F)c1,/,i
COC(=O)CN(C)C1CC(=O)N(c2ccc(Cl)cc2)C1=O (centres undefined),>57,i
CCn1c(COc2ccccc2C)nnc1SCC(=O)CC(=O)Nc1ccccc1OC,>57,i
CC(=O)N1CCN(CCN=CC2=C(O)CC(c3ccco3)CC2=O)CC1 (centres undefined),/,i
COc1ccc(CCNC(=O)CSc2nnnn2-c2ccccc2OC)cc1OC,/,i
COC(=O)c1[nH]c(C)c(/C(O)=C2\C(=O)C(=O)N(CCCN3CCOCC3)C2c2ccccn2)c1C (centres undefined),>57,i
Cc1noc(C)c1COc1ccc(C(=O)OCc2nnc(-c3ccc(Cl)cc3)o2)cc1,>57,i
COc1cccc(NC(=O)N(CCCN2CCOCC2)C(C)c2cc3cccc(OC)c3o2)c1 (centres undefined),>57,i
O=C(O)CN1CCNCC1,>57,i
CCOC(=O)c1ccccc1NC(=O)c1cc2sccc2n1C,>57,i
O=C1C2CCCN2C(c2ccccc2F)N1c1ccc(F)cc1 (centres undefined),>57,i

# Some of these compounds in order of molar mass, rising.
SMILES,Bst PK mod,YjeE inh
CCc1c(C)c2c(C)[nH]nc2oc1=O,>57,i
CCOC(=O)N1CCN(CC(=O)c2c(C)[nH]c3ccccc23)CC1,>57,i
CCOC(=O)C1=C(C)Nc2ncnn2C1c1cc(OC)ccc1OC (centres undefined),/,i
